Sfp PPTase inh = qHTS Assay for Inhibitors of Bacillus subtilis Sfp phosphopantetheinyl transferase (PPTase); 4'-phosphopantetheinyl transferase ffp (Bacillus subtilis), Q9F4F7; Biochemical Sfp PPTase activity, qHTS; Potency, µM, without a hit: max response, negative = inhibition, actives largely listed as inhibitors; 310,000 tested, 3.5% active; AID 1490, 2009; active means well fitted inhibition curve with a large enough effect; inconclusive means small, poorly fitted or top-dose-only effect, or another doubt; inactive means no such curve, though single readings can be large or run the other way;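 further: the enzyme is Sfp with the accession as filed and its product quenches rhodamine fluorescence; potency means the concentration at half of the fitted maximal effect; 0% = enzyme reaction without inhibitor and -100% = no enzyme wells; top concentration of the series not given in the record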
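Fluorescence-quenching assay: 15 nM Sfp-PPTase preincubated 15 min at room temperature with compound, then 5 uM rhodamine-CoA and 12.5 uM BHQ-2-labelled YbbR peptide added. Fluorescence (ex 525/em 598 nm) read at start and after 30 min; difference gives rate.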
Menin-MLL FL inh = qHTS Assay for Inhibitors Targeting the Menin-MLL Interaction in MLL Related Leukemias: Competition With Fluorescein Labeled MLL-derived Peptide; FP activity change, % at 61.4 µM; AID 1766, 2009; 290,000 tested, under 10 active; Fluorescence polarization, fluorescein-MLL peptide displacement from menin; inconclusive = falling polarisation curve, or a change in total fluorescence; inactive = total fluorescence flat and polarisation flat or rising; no compound was filed as active; the % refers to the polarisation; negative = inhibition;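 further: % of control where 0% means no effect; inhibitors lower the polarisation; unlabelled MLL peptide was the positive control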
ClpP mod = qHTS Assay for Activators of ClpP. ATP-dependent Clp protease proteolytic subunit (Bacillus subtilis (strain 168)), P80244. purified B. subtilis ClpP, FRET peptide cleavage, 20 min. Potency, µM (titrated, usually from 57.5 µM), for the others: at the top dose activity change, negative = active. 340,000 tested, 1.9% active. AID 651965, 2013; active = well fitted falling curve with a large enough effect; inconclusive = small, poorly fitted or top-dose-only effect; inactive = no such curve, though single readings can be large or run the other way; further: potency means the concentration at half of the fitted maximal effect; the source files actives as falling curves though it sought activators and does not explain the sign; nearly all actives have a fitted effect of over 65% in size; many hits overshoot -100%
Target sequence (P80244 whole entry, looked up): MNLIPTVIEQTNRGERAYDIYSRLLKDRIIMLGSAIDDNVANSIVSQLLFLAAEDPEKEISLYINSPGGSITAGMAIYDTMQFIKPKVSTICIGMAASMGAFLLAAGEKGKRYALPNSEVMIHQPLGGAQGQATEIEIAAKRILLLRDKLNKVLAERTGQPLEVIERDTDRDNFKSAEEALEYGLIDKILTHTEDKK
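Purified B. subtilis ClpP, 10 microg/mL final in Tris/HCl pH8 with KCl, BSA, glycerol and Tween-20, cleaved an Abz/nitrotyrosine-quenched decapeptide. Fluorescence (ex 320, em 430) was read at 0 and 20 min at room temperature. Delta was normalized to 5.8 microM ADEP and DMSO/no-enzyme controls.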
TRPML1 blocker = qHTS for Inhibitors of the Human Mucolipin Transient Receptor Potential 1 (TRPML1). 390,000 tested, 0.02% active. TRPML1-inducible cells, Ca2+ dye fluorescence, FDSS; stronger effect = lower value; inhibition of EC80 agonist-evoked calcium signal. Mucolipin-1 (Homo sapiens), Q9GZU1. AID 624415, 2012. activity change, negative = inhibition, % (test concentration not listed); in the data active means activity change below about -50%; inconclusive means about -30% to -50%; inactive means above about -30%;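 further: stimulus is agonist 54-4 at its EC80 concentration; on the % scale 0 is the no-effect control and ±100 the full control effect; compound concentration not given in the record; the text of the record puts the active cut at -80%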
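TRPML1-DL cells, Tet-induced overnight (~16 h, 37 °C) at 1,500 cells/well, were loaded with Ca8 no-wash dye plus quencher for 45-90 min at room temperature. Compounds were pinned during FDSS kinetic reading; agonist 54-4 at EC80 (4 uM final) then added.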
TRPML1 agonist = qHTS for Agonists of the Human Mucolipin Transient Receptor Potential 1 (TRPML1). Mucolipin-1 (Homo sapiens), Q9GZU1. TRPML1-expressing cells, Ca2+ dye fluorescence, FDSS; host cell line not named in the record; reference of the full effect not given here. activation, % (test concentration not listed). 410,000 tested, 0.12% active. AID 624414, 2012; in the data active = activation above about 50%; inconclusive = about 30% to 50%; inactive = below about 30%; further: 0% is about no effect; the text of the record puts the active cut at 80%
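Cells: TRPML1-DL, 1X Tet inducer, ~16 h at 37 degrees C/5% CO2. Dye: ABD Ca8 no-wash + quencher, 45-90 min RT. Read: 10 s baseline, compound add, 110 s agonist phase; 54-4 EC80 (4uM final), 110 s antagonist phase.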
TRPV1 potentiator = HTS Assay for Compounds that Act as Potentiators of the Vanilloid Receptor 1; TRPV1-expressing cells, Fluo-8 calcium influx, capsaicin EC20 potentiation; host cell line not named in the record; control for the full effect not named in the record; Transient receptor potential cation channel subfamily V member 1 (Homo sapiens), Q8NER1; potentiation, % at 8.33 µM; 320,000 tested, 0.02% active; active means potentiation above 80%; inconclusive means 30% to 80%; inactive means below 30%; further: 0% is about no effect
Target sequence (Q8NER1 whole entry, looked up): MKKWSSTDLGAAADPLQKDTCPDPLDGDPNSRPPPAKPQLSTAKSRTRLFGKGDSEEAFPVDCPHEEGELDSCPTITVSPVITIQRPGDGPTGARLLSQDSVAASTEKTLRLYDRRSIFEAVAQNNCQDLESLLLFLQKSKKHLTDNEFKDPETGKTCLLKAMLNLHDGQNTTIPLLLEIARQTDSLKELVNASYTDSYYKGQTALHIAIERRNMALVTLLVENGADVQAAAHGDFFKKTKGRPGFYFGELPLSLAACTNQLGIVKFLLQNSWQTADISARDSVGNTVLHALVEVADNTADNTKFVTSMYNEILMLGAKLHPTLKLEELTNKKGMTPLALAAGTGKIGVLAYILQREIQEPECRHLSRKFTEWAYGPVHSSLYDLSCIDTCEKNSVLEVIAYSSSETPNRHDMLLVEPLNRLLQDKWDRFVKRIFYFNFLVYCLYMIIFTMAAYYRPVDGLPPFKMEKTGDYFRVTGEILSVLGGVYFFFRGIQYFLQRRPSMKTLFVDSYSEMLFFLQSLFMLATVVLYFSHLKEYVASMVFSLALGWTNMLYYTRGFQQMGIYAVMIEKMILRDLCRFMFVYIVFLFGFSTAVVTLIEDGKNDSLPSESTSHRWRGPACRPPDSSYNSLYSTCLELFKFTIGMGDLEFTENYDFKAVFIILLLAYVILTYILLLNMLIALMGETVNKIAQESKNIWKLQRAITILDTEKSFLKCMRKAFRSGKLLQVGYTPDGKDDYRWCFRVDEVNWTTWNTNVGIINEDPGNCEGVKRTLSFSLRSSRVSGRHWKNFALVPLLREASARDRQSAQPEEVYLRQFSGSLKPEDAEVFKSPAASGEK
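TRPV1-expressing cells were cultured overnight at 35.5C and loaded with Fluo-8 calcium dye for 40 to 90 min at room temperature. After a 10 s baseline, compound was added and calcium influx was read kinetically for 3 min (ex 480/em 520 nm).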
PINK1 expr mod = A Quantitative High throughput Screen to Identify Chemical Modulators of PINK1 Expression | PINK1 immunofluorescence, high-content cytometry, 24 h | Potency, µM (titrated, usually from 76.6 µM), for the others: top-dose activation (PINK1 increase), most hits filed as activators | 410,000 tested, 0.2% active; active = well fitted activation curve with a large enough effect; inconclusive = small, poorly fitted or top-dose-only effect; inactive = flat fitted curve, though single readings scatter; cell line not stated here;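 further: potency means the concentration at half of the fitted maximal effect; % of control where 0% means no effect; nearly all actives have a fitted effect of over 65% in size; a mitochondrial uncoupler was the plate control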
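PINK1 protein level read as immunofluorescence by microplate cytometer in a fixed, stained stable cell line after 24 h exposure to five compound concentrations, with CCCP as control.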
An asterisk follows results filed as active; u = inconclusive; x = not tested or not shown; [ ] = dose if it differs, or a comment. This is a subset; rates above refer to the full screens.

[1] CCCOP(=O)(O)c1c([N+](=O)[O-])cc(C(F)(F)F)cc1[N+](=O)[O-] (tested in a mixture with another compound)
[2] NC1(C(=O)O)CCCc2ccc(N(CCCl)CCCl)cc21 (stereo not drawn)
[3] O=C(Nc1ccc2c(c1)OCCO2)c1cccn(Cc2cccc([N+](=O)[O-])c2)c1=O
[4] CC1N(O)C2CCCCCC2N1O (stereo not drawn)
[5] O=c1cc(C(F)(F)F)c2cc3c4c(c2o1)CCCN4CCC3
[6] c1ccc2sc(NC3=NCCN3)nc2c1
[7] Cc1ccc(-n2c(C)cc(/C=C3/C(=O)NC(=O)N(Cc4ccco4)C3=O)c2C)cc1
[8] O=C(COc1ccccc1)N1CCN(CCN2C(=O)c3cccc4cccc(c34)C2=O)CC1
entry no.	1	2	3	4	5	6	7	8
Sfp PPTase inh	3%	x	x	5%	-7%	6%	u	8%
Menin-MLL FL inh	3.5	x	x	1.4	u	-1.0	12	-0.8
ClpP mod	-14%	x	2.0%	-1.0%	-9.8%	-2.4%	0.7%	x
TRPML1 blocker	-2	6	-10	-17	-1	-13	3	-17
TRPML1 agonist	-0.3	-0.5	-0.8	-0.4	106*	-0.3	0.1	1.9
TRPV1 potentiator	2	x	x	-3	7	3	14	2
PINK1 expr mod	x	-3.2%	6.3%	-0.2%	-1.3%	2.1%	2.1%	0.9%

[9] COc1ccc(N2C(=O)/C(=C/c3ccco3)C(=O)NC2=S)cc1
[10] CCC1([N+](=O)[O-])COP(N)(=O)OC1 (stereo not drawn)
[11] COc1ccc(CC(C)NC2CCCCCC2)cc1 (stereo not drawn)
[12] CC[N+]12CCC(CC1)C(C(O)(c1ccccc1)c1ccccc1)C2 (stereo not drawn)
[13] COc1ccc(C(=O)C2CCCN(Cc3cccc(C)n3)C2)c(OC)c1 (stereo not drawn)
[14] COc1ccc(N2C(=O)NC(=O)/C(=C/c3cccc(OC(=O)c4cccs4)c3)C2=O)cc1Cl
[15] CC(C)NS(=O)(=O)c1ccc(OCC(=O)N2CCN(C)CC2)cc1
[16] O=C1C(Br)C2CCC1C2C(=O)O (stereo not drawn)
entry no.	9	10	11	12	13	14	15	16
Sfp PPTase inh	11µM*	x	5%	-5%	3%	u	-8%	x
Menin-MLL FL inh	u	x	-1.1	-0.1	2.0	x	-2.2	x
ClpP mod	0.6%	-1.0%	x	-3.3%	x	3.9%	-1.8%	-1.1%
TRPML1 blocker	0	-19	19	-10	-7	6	-13	-4
TRPML1 agonist	0.3	1.0	0.3	0.6	-0.9	-0.6	0.3	-0.4
TRPV1 potentiator	-10	x	-8	9	8	-2	x	x
PINK1 expr mod	-0.4%	-0.1%	-0.6%	0.4%	3.3%	-1.1%	1.3%	1.2%

[17] CCCCOP(=O)(CN1CCOCC1)OCCCC
[18] CCN1CCN(Cc2cc3c(cc2[N+](=O)[O-])OCO3)CC1
[19] COc1ccccc1/C=N/N=C(/N)N[N+](=O)[O-]
[20] CN1CCC(n2nccc2N)CC1
[21] N/C(=N\[N+](=O)[O-])NCCCC(NC(=O)CNC(=O)c1ccccc1)C(=O)O (stereo not drawn)
[22] CC(=O)N1Cc2cnnn2-c2ccccc2C1(C)C#N (stereo not drawn)
[23] CCN(CC)P(=O)(Oc1ccccc1)Oc1ccccc1
[24] CCOC(=O)c1sc(N=Nc2c(O)[nH]c(=O)[nH]c2=O)c(C(=O)OCC)c1C
entry no.	17	18	19	20	21	22	23	24
Sfp PPTase inh	19%	-3%	16%	-1%	19%	x	-11%	6%
Menin-MLL FL inh	4.1	-2.4	3.0	-1.3	-0.3	x	4.5	-2.9
ClpP mod	0.4%	-2.8%	-7.2%	-2.6%	x	0.2%	-1.6%	x
TRPML1 blocker	26	-4	24	0	4	-10	4	x
TRPML1 agonist	-0.8	-0.8	-1.1	3.3	0.0	1.0	-0.4	x
TRPV1 potentiator	4	6	3	-10	-7	x	5	19
PINK1 expr mod	1.1%	-0.9%	-1.6%	-0.2%	-0.7%	-1.7%	1.3%	x

[25] Cc1ccc(N/N=C/c2c(O)n(-c3ccccc3)c(=O)[nH]c2=O)cc1
[26] O=C(c1ccc(Cl)cc1)C1CCCN(Cc2cccc3cccnc23)C1 (stereo not drawn)
[27] C=C1C(=O)O[C@@H]2C[C@@H](C)[C@@H]3C4OC4C(=O)[C@@]3(C)[C@@H](O)[C@H]12 (stereo partly drawn)
[28] Cn1cccc1/C=C1\C(=O)NC(=O)N(Cc2ccccc2)C1=O
[29] CCC(C)C1NC(=O)C2CCCN2C(=O)C(CC(C)C)OC(=O)CCNC(=O)C(C)N(C)C(=O)C(C(C)C)N(C)C1=O (stereo not drawn)
[30] Cc1cc(/C=C2\C(=O)NC(=O)N(c3cccc(F)c3)C2=O)c(C)n1-c1ccc(C(=O)O)c(Cl)c1
[31] CC(=O)O[C@@H]1[C@H]2CC[C@@H]3[C@]1(C[C@@H](OC(C)=O)[C@@]1(O)C([C@@H]4O[C@@H]4C1(C)C)[C@]3(C)O)C[C@@]2(C)O (stereo partly drawn)
[32] C[C@]12CC[C@H](O)CC1=C([N+](=O)[O-])CC1C2CC[C@@]2(C)C1CC[C@@H]2O (stereo partly drawn)
entry no.	25	26	27	28	29	30	31	32
Sfp PPTase inh	-24%	-21%	-2%	-1%	x	-26%	17%	x
Menin-MLL FL inh	-3.3	7.9	-0.9	u	x	u	3.2	x
ClpP mod	x	x	-3.7%	x	-1.1%	0.2%	2.6%	-3.5%
TRPML1 blocker	33	-6	24	0	-7	u	-2	-6
TRPML1 agonist	0.9	-0.4	-1.0	0.1	0.2	-0.3	-0.6	0.7
TRPV1 potentiator	-2	u	20	4	x	9	6	x
PINK1 expr mod	-0.2%	u	-0.6%	11%	-2.4%	0.3%	-0.9%	-1.3%

[33] O=C1NC(=O)C(=Cc2coc3ccccc3c2=O)C(=O)N1
[34] COc1ccc(CC(=O)Nc2ccc(C#N)c(Cl)c2)cc1S(=O)(=O)N1CCOCC1
[35] COc1ccc(C2(C#N)CCN(C)CC2)cc1
[36] O=C1Nc2ccc(Br)cc2C(c2ccccc2)=NC1O (stereo not drawn)
[37] CC(C)COP(=O)(OCC(C)C)C(O)c1cccnc1 (stereo not drawn)
[38] CCOC(=O)C1(CCOc2ccccc2)CCN(Cc2cccc(O)c2)CC1
[39] CC(C)(C)c1ccc(CSc2cnn(C(C)(C)C)c(=O)c2Cl)cc1
[40] CN1C[C@H](CO)C=C2c3cccc4[nH]cc(c34)C[C@H]21
entry no.	33	34	35	36	37	38	39	40
Sfp PPTase inh	40µM*	50µM*	-2%	-1%	-1%	31%[activator]	0%	u
Menin-MLL FL inh	0.0	x	-0.8	0.8	2.4	0.9	-2.6	1.3
ClpP mod	-15%	-5.0%	1.9%	-1.5%	-4.2%	x	-2.1%	4.5%
TRPML1 blocker	3	14	-8	-5	-18	18	51	x
TRPML1 agonist	0.0	-0.3	0.0	0.9	0.9	-0.2	2.3	x
TRPV1 potentiator	8	-7	-7	3	3	12	-5	-5
PINK1 expr mod	13%	-0.7%	1.9%	-1.3%	-2.7%	3.3%	2.3%	0.3%

Some of the entries so far, with values under each structure.
Values run as follows: Sfp PPTase inh	Menin-MLL FL inh	ClpP mod	TRPML1 blocker	TRPML1 agonist	TRPV1 potentiator	PINK1 expr mod
33. O=C1NC(=O)C(=Cc2coc3ccccc3c2=O)C(=O)N1
 : 40µM*	0.0	-15%	3	0.0	8	13%
34. COc1ccc(CC(=O)Nc2ccc(C#N)c(Cl)c2)cc1S(=O)(=O)N1CCOCC1
 : 50µM*	x	-5.0%	14	-0.3	-7	-0.7%
35. COc1ccc(C2(C#N)CCN(C)CC2)cc1
 : -2%	-0.8	1.9%	-8	0.0	-7	1.9%

(listing goes on)
[41] COCCOC(=O)C1=C(N)Oc2c(c(=O)oc3ccccc23)C1c1ccncc1 (stereo not drawn)
[42] CN(C)CC/C=C1\c2ccccc2Sc2ccc(Cl)cc21
[43] CN1C(=O)C(=Cc2ccc(N(C)C)c([N+](=O)[O-])c2)C(=O)N(C)C1=O
[44] CN1CCN(S(=O)(=O)c2ccc(C3CCCCC3)cc2)CC1
[45] CCOC(=O)c1c(NC(NC(=O)CF)C(Cl)(Cl)Cl)sc2c1CCCC2 (stereo not drawn)
[46] c1ccc(C(c2ccccc2)c2cccnc2)cc1
[47] Cc1ccc2c(c1)C1CN(C)CCC1N2C(=O)c1cn(-c2ccccc2)nc1-c1ccccc1 (stereo not drawn)
[48] CC(C)(C)C(=O)N1Cc2cc(-c3ccccc3)ccc2-n2nncc2C1
[49] CC(C)c1ccc(N=Nc2c(O)[nH]c(=O)[nH]c2=O)cc1
[50] C(#CCN1CCCCC1)COCc1ccccc1
[51] CC12CCC(=O)C=C1CCC1C2CCC2(C)C(O)(C(=O)CO)CCC12O (stereo not drawn)
entry no.	41	42	43	44	45	46	47	48	49	50	51
Sfp PPTase inh	-4%	u	56µM*	x	-23%	x	-16%	x	2%	5%	x
Menin-MLL FL inh	1.0	0.8	0.9	x	0.9	x	6.0	x	-1.0	0.1	x
ClpP mod	0.2%	-4.0%	x	u	1.0%	x	1.5%	0.8%	1.0%	0.6%	-1.8%
TRPML1 blocker	16	24	x	-11	1	3	32	x	u	4	19
TRPML1 agonist	1.2	-0.1	x	0.3	0.0	3.3	1.1	0.0	0.9	-0.9	0.3
TRPV1 potentiator	5	-8	-2	-11	7	x	-8	x	-11	17	x
PINK1 expr mod	1.9%[38.3 µM]	-1.1%	x	1.4%	26%	3.6%	-1.9%	5.4%	-0.1%	0.0%	0.7%

Screening results as filed in PubChem.
